Assay outcomes from PubChem BioAssay.
Choline anaer gr: blocks anaerobic gram-negative growth on choline; Gram-negative bacterium anaerobic choline minimal medium, absorbance growth; stronger effect = lower value; many inactives read as strong as hits in the columns shown; calls only; hit rate 0.2% among 55,000; AID 1963822;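 active means growth z-score on choline under -2 at 7 or 20 h with little or no fall on glycerol, limits in tiers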;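 further: stock transfer was 300 nL into about 50 µL; the organism is E. coli; final concentration not given here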
Choline anaer gr early: further read-out of Choline anaer gr, marked with its call; z-score; measured here: choline growth z-score, timepoint 1;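 score of optical density at 7 h as mean of two plates; lower means less growth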
Active calls of the source: *; i = inactive; & = joins results of further samples. Some of the compounds tested. The share of hits here may be higher or lower than overall.

Start of the listing, in advance (five entries):
cpd	Molecule	Choline anaer gr	Choline anaer gr early
1	CC(=O)NCc1noc(-c2cccc(C)c2)n1	i	0.33
2	Cc1ccc(Cn2c(SCc3ccc(C(=O)NCCN4CCOCC4)cc3)nc3ccncc32)cc1	i	-0.12
3	COc1cc(OC)c(NC(=O)COc2cc(C)nc(N3CCCC3)n2)cc1Cl	i	-0.17
4	CCn1cc(C(=O)O)c(=O)c2cc(F)c(N3CCNCC3)cc21	i	-2.5&-1.5
5	Cc1ccc(OC(=O)CSc2nc(-c3ccccc3)nc3cc(=O)[nH]n23)c(C)c1	i	1

The whole of this part, repeating the preview:
cpd	Molecule	Choline anaer gr	Choline anaer gr early
1	CC(=O)NCc1noc(-c2cccc(C)c2)n1	i	0.33
2	Cc1ccc(Cn2c(SCc3ccc(C(=O)NCCN4CCOCC4)cc3)nc3ccncc32)cc1	i	-0.12
3	COc1cc(OC)c(NC(=O)COc2cc(C)nc(N3CCCC3)n2)cc1Cl	i	-0.17
4	CCn1cc(C(=O)O)c(=O)c2cc(F)c(N3CCNCC3)cc21	i	-2.5&-1.5
5	Cc1ccc(OC(=O)CSc2nc(-c3ccccc3)nc3cc(=O)[nH]n23)c(C)c1	i	1
6	COc1ccc(Cl)cc1NC(=O)C(C)Sc1nc2c(c(=O)[nH]1)CCCC2 (stereo unspecified)	i	0.11
7	Cc1ccc(NC(=O)CCCCCC(=O)Nc2ccccc2N)cc1	i	-2.3
8	Cc1nc2nc(C3CCCCC3)nn2c(C)c1CC(=O)Nc1ccc(Br)cc1	i	-1
9	CCc1ccc(S(=O)(=O)c2c(C(=O)N3CCCCC3)cnc3ccccc23)cc1	i	1.1
10	Cc1cn([C@H]2C[C@H](N=[N+]=[N-])[C@@H](CO)O2)c(=O)[nH]c1=O	i	-2.2&-1.4
11	O=C(c1nc(N2CCCCC2)c2oc3ccccc3c2n1)N1CCc2ccccc21	i	-0.19
12	O=c1[nH]ccn(-c2ccc3c(c2)OCCO3)c1=O	i	-0.08
13	Cc1cccc(-c2noc(-c3cn(CC(=O)NC4CCCC4)c4nc(C)ccc4c3=O)n2)c1	i	0.36
14	COCCNc1ncnc2sc(C(=O)O)c(C)c12	i	-1.1
15	CCn1c2c(c3ccccc31)CN(C(=O)C1CCC1)CC2	i	-1.3
16	C#CCN[C@@H]1CCc2ccccc21	i	0.61&0.08
17	COc1ccc(S(=O)(=O)NCCc2csc(-c3ccc(Cl)cc3)n2)cc1	i	0.56
18	COC1=CC(=O)C[C@@H](C)[C@]12Oc1c(Cl)c(OC)cc(OC)c1C2=O	i	0.64
19	CCN1c2cc(C)ccc2-n2cccc2C12CCN(S(=O)(=O)c1ccc(C)cc1)CC2	i	-1.5
20	CCC(C)NC(=O)CN1C(=O)COc2ccc(S(=O)(=O)N(CC)CC)cc21 (stereo unspecified)	i	0.91
21	CCC(=O)Nc1ccccc1-c1nnc(SC(C)C(=O)Nc2ccccc2C)[nH]c1=O (stereo unspecified)	i	-0.19
22	CC(=O)Nc1ccc(-c2noc(C3CCCN(C(=O)CCc4c[nH]c5ccccc45)C3)n2)cc1 (stereo unspecified)	i	-0.04
23	CC(=O)Oc1cccc(C)c1	i	-0.27
24	CC1=NS(=O)(=O)N(C)C=C1C(=O)OCc1c(C)noc1C	i	1.1
25	CCc1cc(Sc2ccc(NC(=O)c3ccc(OC)cc3)cc2)n2ncnc2n1	i	0.64
26	COc1ccc(C2=NN(c3nc(C)cs3)C(c3ccccc3)C2)cc1OC (stereo unspecified)	i	0.83
27	Cc1cc2nc(CSc3ccccc3C)cc(=O)n2o1	i	0.34
28	COc1ccccc1CNC(=O)c1cn(C)c2c(=O)n(-c3ccccc3)c(=O)[nH]c12	i	-0.51
29	CCN(CC)CCNC(=O)Cn1cnc2onc(C)c2c1=O	i	-0.62
30	COc1cccc(C(=O)NC(=NCc2ccncc2)Nc2ccc3c(c2)OCCO3)c1	i	-1.5

(list continues)
cpd	Molecule	Choline anaer gr	Choline anaer gr early
31	Cc1ccc(S(=O)(=O)c2ccc(C(=O)N3CCOCC3)cn2)cc1C	i	0.49
32	Cc1ccc(Cl)cc1N1CCN(CCCNC(=O)c2nnc(Cc3ccc(F)cc3Cl)o2)CC1	i	-0.12
33	CCCC(=O)N1CCC2(C1)C(=O)N(C)c1ccccc12 (stereo unspecified)	i	-0.65
34	COc1ccc(OC)c(Nc2cc(C(=O)NCc3ccc(F)cc3)c3ccccc3n2)c1	i	0.69
35	CCCCN1CCS(=O)(=O)c2c(Cl)c(N3CCCC3)nc(Oc3ccc(F)cc3)c21	i	0.22
36	Cc1ccc(O)c(NC(=O)c2ccc3ncc4c(=O)n(-c5ccc(Cl)cc5)[nH]c4c3c2)c1	i	-0.14
37	CCOc1ccc(S(=O)(=O)c2cn(CC(=O)Nc3cccc(C)c3)c3ccc(F)cc3c2=O)cc1	i	-0.43
38	CC(CN1c2ccccc2Sc2ccccc21)N(C)C (stereo unspecified)	i	0.6&-0.95&0.01&-0.53
39	O=C(CSc1nnc(NC(=O)NC2CCCCC2)s1)Nc1ccc2c(c1)OCO2	i	-0.03
40	CC(c1nnc(SCC(=O)Nc2nc3ccccc3s2)n1C)N1C(=O)COc2ccccc21 (stereo unspecified)	i	0.82
41	O=C(CCc1ccc(-n2cnc3cccnc32)cc1)NCc1cccc(Cl)c1	i	0.29
42	Cc1nn(C)c(C)c1CCN(C)C(=O)Nc1ccc(Cl)cc1	i	-0.79
43	COc1ccc(C)cc1Nc1cc(C)nc(C)n1	i	-0.17
44	CCOC(=O)c1c(C)c(S(=O)(=O)NC2CCCC2)c(C)n1C	i	-0.26
45	CCSc1nnc(-c2nn(C)c3c2CN(S(=O)(=O)c2ccc(C)c(Cl)c2)CC3)n1CC	i	-2
46	NC(=O)Cn1cnc2nc(N3CCOCC3)sc2c1=O	i	0.19
47	COc1cc(OC)cc(N2C=C(C#N)S(=O)(=O)c3cc(F)ccc32)c1	i	0.22
48	Cc1cc(C)c2c(n1)sc1c(=O)n(-c3cccc(C(=O)Nc4cccc(F)c4)c3)cnc12	i	-0.07
49	Cc1cccc(C(=O)Nc2nc3c(s2)CN(C)CC3)c1	i	-1.9
50	CN(Cc1ccccc1)C(=O)CS(=O)Cc1cnn(-c2ccccc2)c1-n1cccc1 (stereo unspecified)	i	-0.61
51	Cn1c(N2CCN(C(=O)Cc3ccccc3Cl)CC2)nc2ccccc21	i	0.59
52	CCCN(CCC)S(=O)(=O)c1csc(C(N)=O)c1	i	-0.68
53	Nc1cc(OC(=O)c2ccccc2Cl)nn1S(=O)(=O)c1ccc(F)cc1	i	0.9
54	Cn1c(=O)c2nc(S(=O)(=O)CCC(=O)Nc3cc(F)ccc3Cl)n(C)c2n(C)c1=O	i	-1.1
55	Cc1ccc(-c2nc3nc[nH]n3c2Nc2ccccc2)cc1	i	-1.4
56	O=c1c2cc3c(cc2nc(SCc2nc(-c4cccc(Cl)c4)no2)n1C1CCCC1)OCO3	i	0.77
57	CS(=O)(=O)N1CCN(c2ncnc3c2nnn3-c2cccc(F)c2)CC1	i	-0.91
58	COc1ccccc1-c1c(C)nn2c(NC(C)CCc3ccccc3)cc(C)nc12 (stereo unspecified)	i	0.19
59	Cc1ccnc(N2CCC(C(=O)NCc3ccccn3)CC2)n1	i	0.17
60	O=S(=O)(NCc1cccs1)c1cc(-c2nnc(C3CC3)o2)cs1	i	-1.4

Next structures
cpd	Molecule	Choline anaer gr	Choline anaer gr early
61	COc1ccc(-c2ccc(SCc3nc(-c4ccc(F)cc4)no3)nn2)cc1OC	i	0.63
62	CCOC(=O)c1nc(Nc2ccc(Br)cc2)c2c(C)noc2n1	i	1.2
63	COc1ccnc2c1c(=O)n(CC(=O)Nc1ccc(NC(C)=O)cc1)c(=O)n2C	i	-1.8
64	CCC(C)Nc1cc(C)nc2c(-c3ccc(F)cc3)c(C)nn12 (stereo unspecified)	i	1.7
65	Cc1cc(NC(=O)CC(=O)Nc2ccc3nc4n(c(=O)c3c2)CCCCC4)no1	i	1.2
66	O=S(=O)(Nc1ccccn1)c1ccc(F)cc1	i	-1.7
67	COc1ccc(-c2nc3c(s2)CN(C(=O)c2cccc(Cl)c2)CC3)cc1	i	-0.37
68	Cc1cccc(S(=O)(=O)Nc2cc(C(=O)O)ccc2N2CCN(c3cccc(Cl)c3)CC2)c1	i	0.11
69	CC(C)c1cc(Nc2cc(F)ccc2F)n2nc(-c3cccnc3)nc2n1	i	-1.7
70	COc1ccc(-c2cc(C)no2)cc1S(=O)(=O)CCC(=O)N1CC=C(c2ccccc2)CC1	i	0.4
71	CC(C)CC(=O)N1CCCN(C(=O)Nc2ccc(S(=O)(=O)N3CCOCC3)s2)CC1	i	-0.81
72	Cn1c(=O)c2nscc2n(CC(=O)NC2CCCCC2)c1=O	i	0.26
73	CC1CCCCN1C(=O)c1cnn2c(C(F)(F)F)cc(-c3ccc(Br)cc3)nc12 (stereo unspecified)	i	0.27
74	Cc1cccc(NC(=O)CN(C)S(=O)(=O)c2ccc3c(c2)C(=O)NCC(=O)N3)c1C	i	0.93
75	Cc1nnc(SCC(=O)O)c2nn(-c3ccccc3)c(C)c12	i	-1.4
76	COc1ccc(-c2ccc(SCc3nc(-c4ccc(Br)cc4)no3)nn2)cc1OC	i	0.51
77	Cc1nn(-c2ccc3nncn3n2)c(C)c1CCC(=O)NCCC1=CCCCC1	i	0.34
78	O=C(NCCc1c[nH]c2ccc(Cl)cc12)c1cc2n(n1)CCCN(Cc1ccc(Cl)cc1)C2=O	i	-1.4
79	O=c1[nH]cc(S(=O)(=O)NC2CCCC2)c(=O)[nH]1	i	0.11
80	CC(C)n1cnc2nc(CSc3ccc(NC(=O)C(C)(C)C)cc3)cc(=O)n21	i	0.22
81	O=C(NCCc1cnc[nH]1)C1CCN(c2ccc(Cl)cc2)C1=O (stereo unspecified)	i	-0.92
82	Cc1ccc2ccc3cc(C(=O)Nc4cccc(Cl)c4)nc3c2[nH]1	i	-0.27
83	CC1CCc2c(sc3ncn(Cc4ccccc4Cl)c(=O)c23)C1 (stereo unspecified)	i	-1.3
84	Cc1cccc(OCC(=O)Nc2cc3c(cc2S(=O)(=O)c2ccccc2)n(C)c(=O)n3C)c1C	i	0.03
85	Cc1cn2c(=O)cc(COc3ccc(NC(=O)C(C)C)cc3)nc2s1	i	0.42
86	O=c1cc(CSc2nc3ccccc3s2)[nH]c2nc3ccccc3n12	i	-0.43
87	CCC(C)NC(=O)c1ccc(Cn2c(SCc3cccc(OC)c3)nc3ccncc32)cc1 (stereo unspecified)	i	-0.54
88	Cc1ccc(S(=O)(=O)c2ccc(C(=O)O)cn2)cc1	i	0.24
89	Oc1ccc(-c2nc3cc(O)cc(Br)c3o2)cc1	i	-1.5
90	CCCn1nccc1-c1csc(S(=O)(=O)NC(C)(C)CC)c1	i	0.02

Other structures
cpd	Molecule	Choline anaer gr	Choline anaer gr early
91	COc1ccc(/C=C\c2onc(C)c2S(=O)(=O)N2CCC(C(=O)N3c4ccccc4CC3C)CC2)cc1 (stereo unspecified)	i	0.38
92	Cc1cc(C)cc(-n2ccn3c(CCCC(=O)N4CCN(c5ccccn5)CC4)nnc3c2=O)c1	i	-1.3
93	Cc1csc(-c2csc(S(=O)(=O)N3CCN(c4cccc(C)c4C)CC3)c2)n1	i	0.71
94	COc1ccc(S(=O)(=O)N2CCc3cc4cccc(C)c4nc32)cc1OC	i	0.9
95	CCN(Cc1ccccc1)C(=O)C1CCN(c2ncnc3c2oc2ccccc23)CC1	i	-0.26
96	COc1ccc(-c2nn(CCCC(=O)NCc3ccccn3)c(=O)c3noc(C)c23)cc1	i	-0.97
97	N#Cc1nc(-c2ccc(S(=O)(=O)N3CCCCC3)cc2)oc1NC1CC1	i	0.89
98	CCc1ccc(OC(=O)CSc2nc(-c3ccccc3)nc3cc(=O)[nH]n23)cc1	i	-0.09
99	Cc1ccc(-n2ccnc(NCc3ccc4c(c3)OCO4)c2=O)cc1	i	-2.1
100	CCN(CC)C(=O)CCC/C=C\C[C@@H]1[C@@H](/C=C/[C@@H](O)CCc2ccccc2)[C@H](O)C[C@@H]1O	i	1.1
101	O=C(CCn1c(=O)sc2cc(S(=O)(=O)N3CCOCC3)ccc21)N1CCCC1	i	-1.8
102	Cc1noc(COC2CCCN(S(=O)(=O)c3cn(C)c(C)n3)C2)n1 (stereo unspecified)	i	-0.68
103	O=C(c1cccc(-c2nc(-c3ccccc3)no2)c1)N1CCc2ccccc21	i	-0.46
104	Cc1ccc(CNC2=NCCCNC23CCCC(C)C3)cc1 (stereo unspecified)	i	0.25
105	NC(=O)c1ccc(NC(=O)c2ccc(=O)n(Cc3cccc(Cl)c3)c2)cc1	i	-1.3
106	Cc1nnc2c(SCC(=O)NC(C)C)nc3ccccc3n12	i	0.23
107	COc1ccc(-c2nc(Nc3ccc(OC)c(Cl)c3)c3ccccc3n2)cc1	i	-0.4
108	CCc1c(C)nc2ncnn2c1Sc1ccccc1NC(=O)c1ccc2c(c1)OCO2	i	0.82
109	Cc1ccc(CNS(=O)(=O)c2cc(-c3cc(C(F)(F)F)[nH]n3)sc2C)o1	i	0.3
110	Cc1ccc2c(CC(=O)Nc3sc4c(c3C(=O)NCC3CCCO3)CCCC4)coc2c1C (stereo unspecified)	i	0.17
111	CCOc1ccc(S(=O)(=O)Nc2ccc(CCc3nc4ccccc4n3CC)cc2)cc1	i	1.2
112	Cc1[nH]c(-c2ccc(F)cc2)cc1C(=O)NC1CCCCC1C (stereo unspecified)	i	1.4
113	Cc1[nH]c(C)c(S(=O)(=O)N2CCC(C(=O)N3CCc4ccccc43)CC2)c1C(=O)N1CCCCC1	i	0.98

Fetched by compound from the entries so far:
cpd	Molecule	Choline anaer gr	Choline anaer gr early
110	Cc1ccc2c(CC(=O)Nc3sc4c(c3C(=O)NCC3CCCO3)CCCC4)coc2c1C (stereo unspecified)	i	0.17
91	COc1ccc(/C=C\c2onc(C)c2S(=O)(=O)N2CCC(C(=O)N3c4ccccc4CC3C)CC2)cc1 (stereo unspecified)	i	0.38
